PKD1 inh: PKD1 (human) kinase inhibition; Q15139; PKD1 kinase fluorescence polarization assay; inhibition, %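 (about 10 µM by stock and volumes)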; 0.056% of 200,000 active; AID 797;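 active means inhibition of 50% or more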;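 further: controls were vehicle for no effect and a reference inhibitor for full effect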
HSV augment: HSV replication enhancement; HSV replication augmentation in cells, fold increase; maximum fold increase; 0.005% of 220,000 active;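 active means peak rise of 1.5-fold or more in the series; tested in PC3 cells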;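 further: first round at 10 µM; read as green reporter fluorescence; hits show the peak of a series up to 25 µM; 1 = signal of infected wells without compound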
GALR2 agonist: GALR2 (human) receptor agonism; O43603; GALR2-expressing cells, agonist activation read-out; activation, %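 (tested at 5 µM)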; 0.48% of 140,000 active; AID 803;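 active means above mean plus 3 SD of all compounds, about 5% in these data, not always enough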;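 further: 0% = vehicle buffer wells and 100% = reference agonist at full effect; tested in CHO reporter cells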
Target sequence (O43603 whole entry, looked up): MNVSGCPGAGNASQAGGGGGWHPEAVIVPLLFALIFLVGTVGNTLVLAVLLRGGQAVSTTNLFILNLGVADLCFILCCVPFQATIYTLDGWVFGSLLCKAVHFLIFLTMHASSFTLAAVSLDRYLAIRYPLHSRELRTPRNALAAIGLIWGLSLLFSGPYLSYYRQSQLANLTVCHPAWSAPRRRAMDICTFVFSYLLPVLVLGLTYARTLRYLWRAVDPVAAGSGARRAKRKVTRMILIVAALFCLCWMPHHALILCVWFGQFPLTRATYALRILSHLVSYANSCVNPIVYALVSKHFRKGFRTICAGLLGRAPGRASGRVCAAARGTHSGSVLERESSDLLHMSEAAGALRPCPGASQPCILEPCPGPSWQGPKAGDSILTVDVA
Insulin prom inh: TRM-6 insulin promoter activity inhibition; TRM-6 cells (human fetal islet line), insulin promoter-eGFP reporter, imaging; reporter expression induced with tamoxifen; inhibition, % at 2 µM; 0.9% of 130,000 active;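 active means inhibition above the mean plus 3 SD, with well images judged a real hit on visual review, cut at about 60% in these data, passing the limit was not always enough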
RGS16-Gao HTS: RGS16-Galphao interaction regulator (human) | O15492+P09471 | bead-based flow cytometry RGS16-Galphao binding, fluorescence; actives lie on both sides | binding response (% of control), % at 10 µM | 0.38% of 220,000 active | AID 1441;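 active means below 25% or above 175%, edge rows of some plates excepted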;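 further: Galphao activated by GDP with aluminum fluoride before binding; 100% = wells without compound and 0% = beads without RGS; some results beyond the cut were filed as inactive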
Target sequence (O15492 whole entry, looked up): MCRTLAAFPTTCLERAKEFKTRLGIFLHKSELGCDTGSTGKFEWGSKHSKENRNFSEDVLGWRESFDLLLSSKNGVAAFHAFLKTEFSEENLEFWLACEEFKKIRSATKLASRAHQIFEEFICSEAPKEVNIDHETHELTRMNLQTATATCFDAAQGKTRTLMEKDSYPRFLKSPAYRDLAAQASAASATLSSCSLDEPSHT
Target sequence (P09471 whole entry, looked up): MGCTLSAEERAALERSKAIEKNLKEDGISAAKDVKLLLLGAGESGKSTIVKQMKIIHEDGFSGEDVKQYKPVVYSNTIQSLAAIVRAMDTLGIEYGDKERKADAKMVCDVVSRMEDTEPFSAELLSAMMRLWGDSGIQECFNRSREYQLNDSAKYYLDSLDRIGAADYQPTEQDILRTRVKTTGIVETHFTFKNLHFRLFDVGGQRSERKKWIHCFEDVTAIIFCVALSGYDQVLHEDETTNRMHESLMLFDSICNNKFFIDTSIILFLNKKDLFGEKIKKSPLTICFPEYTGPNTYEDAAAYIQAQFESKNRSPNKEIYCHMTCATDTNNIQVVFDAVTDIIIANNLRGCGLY
Insulin prom inh cell count: also measured in Insulin prom inh; calls as there; normalized cell count, %; measured here: cell count, toxicity; reference of the scale not given here;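 cells exposed to compound for 48 h; stained nuclei by imaging scaled within each plate; lower means fewer cells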
HSV augment primary fold: further read-out of HSV augment, marked with its call; fold increase; compound at 10 µM; measured here: primary screen fold increase 10 uM; tested in PC3 cells;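 GFP signal in the first replicate; 1 = infected wells without compound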
* hit, by the source's call; i = inactive; · = not tested or not shown; [ ] = remark or other dose.

SMILES	PKD1 inh	HSV augment	HSV augment primary fold	GALR2 agonist	Insulin prom inh	Insulin prom inh cell count	RGS16-Gao HTS
CCOC(=O)CNS(=O)(=O)c1ccc2c3c(cccc13)C(=O)N2CC	-7	i	1.1	·	·	·	102
C/C(=N\NC(=O)c1ccn(C)n1)c1cccc(NC(=O)c2ccncc2)c1	12	i	0.92	0.4	21	134	108
Cc1occc1C(=O)NNC(=O)C1CCCC1	2	i	0.96	·	10	71	42
Cc1cc(C)c(NC(=O)CN2CCOCCOCCOCCOCC2)c(C)c1	-3	i	0.92	-2.5	24	137	102
Cc1csc(NC(=O)c2ccc(N3CCCC3=O)cc2)n1	4	i	0.91	·	33	169	100
CC1CCN(C(=O)N[C@@H](Cc2ccccc2)C(=O)O)CC1	-4	i	1.1	-0.5	2	90	99
CC(=O)NC1(NC(C)=O)CCN(C)CC1	-3	i	0.94	·	-65	129	101
COC(=O)c1ccc(CO/N=C2\CCCc3nonc32)cc1	8	i	1.2	·	·	·	99
CCC(C)(C)n1nnnc1C(C(C)C)N(CCCO)Cc1cc2cc(C)ccc2[nH]c1=O (stereo not drawn)	17	i	0.98	0.6	-45	96	76
CCC(=O)Nc1ccc(C(=O)CSc2nc3ccc(C)cc3[nH]2)cc1	15	i	0.92	-1.1	22	137	86
Cc1ccc(C(=O)CCNc2ccc(Br)cc2)o1	-2	i	0.96	-3.2	-155	68	101
CCn1c(=O)c(=O)n(CC)c2cc(S(=O)(=O)Nc3cccc(OC)c3)ccc21	0	i	0.94	-2.0	·	·	101
O=C(Nc1ccc2ccccc2n1)C1CCCCC1	·	i	0.99	·	·	·	99
CC1=C(C(=O)OCc2ccccc2)C(c2cccnc2)c2c(n(C)c(=O)n(C)c2=O)N1 (stereo not drawn)	16	i	0.82	-1.5	-13	128	108
CC12CC3(C)CC(C)(C1)CC(C(=O)NCc1ccccn1)(C2)C3	-5	i	1	·	-21	148	100
COC(=O)COc1cc(Cl)c(C=O)cc1OC	3	i	0.91	·	·	·	100
Cc1cc(C)c(S(=O)(=O)Nc2cccc3nsnc23)c(C)c1	-6	·	·	-1.4	46	91	107
CCOC(=O)c1cnc(SC)nc1Oc1cccc(NC(=O)c2ccc(Cl)cc2)c1	-1	i	0.94	-1.3	55	159	104
Cc1ccc(-c2cc3nc(C)cc(NCc4ccco4)n3n2)cc1	-6	i	1	0.3	21	95	98
CC(O)c1nc2ccccc2n1CCOc1ccccc1 (stereo not drawn)	-1	i	0.9	-1.8	25	103	112
N#C/C(=C\c1cn[nH]c1-c1ccc(Cl)cc1)C(=O)NCc1ccccc1	2	·	·	-0.4	14	42	99
Cc1ccc(NC(=O)CNCC(c2ccccc2)N(C)C)cc1F (stereo not drawn)	·	i	0.84	·	·	·	100
CC1(C(=O)NNC(=O)c2ccc(=O)oc2)CC1Br (stereo not drawn)	·	i	1	·	·	·	112
O=C(OCCNc1nc(-c2ccccc2)nc2ccccc12)c1ccncc1	-1	i	0.97	·	·	·	97
Cc1cc(C)n(-c2ccc(C(=O)Nc3ccccc3N3CCOCC3)cc2)n1	10	i	1	-1.2	-39	119	83
Next entries follow:
SMILES	PKD1 inh	HSV augment	HSV augment primary fold	GALR2 agonist	Insulin prom inh	Insulin prom inh cell count	RGS16-Gao HTS
CN1C2CCC1/C(=C\c1ccccc1)C(=O)/C2=C\c1ccccc1	4	i	0.62	-2.3	-42	93	105
CC1CCN(CC(=O)Nc2sc3c(c2C#N)CCC3)CC1	-8	i	0.94	0.2	·	·	99
O=C1NCCN(Cc2cccc(Oc3ccccc3)c2)C1CC(=O)N1CCCO1 (stereo not drawn)	1	i	1	·	0	88	108
Cn1cc(NC(=O)Nc2ccc(C(F)(F)F)cc2)c(C(F)(F)F)n1	·	i	1	·	·	·	96
CC1CCN(c2nc(-c3ccncc3)nc3ccccc23)CC1	6	i	0.78	2.5	·	·	104
C/C(=N/NC(=O)c1ccc(NC(=O)c2ccc(F)cc2)cc1)c1ccccc1	-8	i	0.9	-2.0	·	·	94
CCCC1(C(=O)O)NC(c2cccc(OC)c2O)C2C(=O)N(c3ccccc3)C(=O)C21 (stereo not drawn)	-5	i	0.96	0.9	·	·	101
CC(C)(C)c1cc(-c2ccco2)c(C#N)c(SCC#N)n1	0	i	1	-1.0	-6	104	100
O=C(CNCC1CCCO1)Nc1ccccc1-n1cccc1 (stereo not drawn)	1	i	1	0.3	13	194	104
O=C(N/N=C/c1ccc(O)cc1)c1cc[n+](Cc2ccccc2)cc1	-3	i	0.92	-0.6	·	·	56
C[n+]1cccc(C(=O)NCC2CCCO2)c1 (stereo not drawn)	6	·	·	-1.0	0	101	308*[activator]
COc1cccc(C(=O)N2CCN(Cc3ccccc3[N+](=O)[O-])CC2)c1	-10	i	1.1	0.3	·	·	104
Cc1cc(=O)c2ccccc2[nH]1	-16	i	0.83	-4.5	-21	100	102
CCOC(=O)c1cn(Cc2ccccc2)nn1	-3	i	0.94	-1.1	-21	79	111
CSc1cccc(NC(=O)c2ccccc2N(C)S(C)(=O)=O)c1	-4	i	0.97	-2.3	-17	77	105
CCc1ccc2c(c1)[C@]1(C(=O)N2)[C@@H]2C(=O)N(Cc3ccccc3)C(=O)[C@@H]2[C@@H]2CCCN21	-6	i	0.7	-0.9	-57	98	98
CC(=O)c1sc(NC(=O)c2cccc(C)c2)nc1C	-1	i	0.82	·	11	116	100
COCCNCC(=O)NC12CC3CC(CC(C3)C1)C2	-5	i	0.96	-0.6	-36	96	105
COc1cc(N=c2ssnc2Cl)cc(OC)c1OC	-11	i	0.95	-0.2	·	·	43
Cc1nnc(Nc2ccccc2)n(N)c1=O	0	i	0.92	0.3	3	110	104
CCN(CC)CCN(C(=O)CCOc1ccccc1)c1nc2ccc(F)cc2s1	3	i	1.1	·	22	130	102
CC(=O)c1cnn(-c2cc(Oc3ccc(F)cc3)ncn2)c1C	-6	i	0.78	-0.8	-21	149	105
CC1(C)CSC(=NCc2ccccc2)N1C(=O)c1cccc([N+](=O)[O-])c1	-4	i	0.87	-0.9	·	·	116
CCC(=O)c1ccc(OCC(=O)NCCc2ccccn2)cc1	-9	i	1	·	-8	98	128
CCOC(=O)C1(Cc2ccccc2Cl)CCN(C(=O)c2cnccn2)CC1	7	i	0.96	·	·	·	101
Going on with the list:
SMILES	PKD1 inh	HSV augment	HSV augment primary fold	GALR2 agonist	Insulin prom inh	Insulin prom inh cell count	RGS16-Gao HTS
COc1ccc(/C=C/C(=O)OCC(=O)Nc2ccc(OC)c(S(=O)(=O)N3CCCCC3)c2)cc1	6	i	1.1	-0.7	·	·	97
O=C(O/N=C1\CCS(=O)(=O)c2sccc21)c1ccccc1	4	i	1	-0.2	0	114	110
CC(C)(C)C1CCc2onc(C(=O)Nc3cccnc3)c2C1 (stereo not drawn)	10	i	0.84	0.4	·	·	98
COC(=O)CCC(=O)Nc1sc2c(c1C#N)CCCC2	-3	i	0.99	-0.7	·	·	85
Cc1onc(-c2c(Cl)cccc2Cl)c1/C(N)=N/OC(=O)C1CC1	·	i	0.89	·	·	·	93
COc1nc2ccccc2nc1CCC(=O)O	5	i	0.96	·	-50	91	101
Cc1sc(NC(=O)Cn2[nH]c(=O)c3ccccc3c2=O)nc1-c1ccccc1	-11	i	0.98	4.1	-47	58	38
CN(C)S(=O)(=O)N1C(=O)c2ccccc2C1=O	·	i	0.97	·	·	·	97
N#Cc1nc(-c2ccco2)oc1N1CCN(c2ccccc2)CC1	-5	i	0.9	-2.0	-107	168	100
Cn1c(=O)oc2cc(S(=O)(=O)N3CCN(Cc4ccc5c(c4)OCO5)CC3)ccc21	80*	i	0.8	-2.2	·	·	105
CC1Oc2ccccc2C=C1/C=N\NC(=O)c1cccnc1 (stereo not drawn)	·	i	1	·	·	·	98
Cc1nn(Cc2ccccc2Cl)c(Cl)c1/C=C/C(=O)OCC(=O)NC1CCS(=O)(=O)C1 (stereo not drawn)	-3	i	0.9	·	7	73	80
COc1cccc(OC)c1OCCCCc1c(C)n[nH]c1C	1	i	1	·	·	·	98
O=C1N/C(=N\S(=O)(=O)Cc2ccccc2)S/C1=C/c1cccc([N+](=O)[O-])c1	·	i	1.1	·	·	·	97
COC(=O)C1=C(C)OC(N)=C(C#N)C1c1ccccc1F (stereo not drawn)	-12	i	1.2	-4.1	0	109	99
COc1cc(CCC(=O)OCC(=O)Nc2cccc(S(N)(=O)=O)c2)cc(OC)c1OC	-4	i	0.99	-1.2	·	·	98
Cc1ccc2nc(-c3sc4nc(C)ccc4c3N)[nH]c2c1	4	i	0.87	0.9	-452	29	103
COc1ccc(N2C(=O)CCC(C(=O)NCCCN3CCC(C)CC3)C2c2ccc(OC)c(OC)c2)cc1 (stereo not drawn)	4	i	0.91	·	20	94	102
O=C(CN1CCC(n2nnc3cc(F)ccc32)CC1)NNC(=O)c1ccccc1	2	i	0.85	-1.4	3	97	105
COc1ccc(CCN=C(NS(=O)(=O)c2ccccc2)c2ccccc2)cc1OC	-2	i	0.96	·	-27	88	97
NC(=S)N=Nc1c(O)n(Cc2ccc(Br)cc2)c2ccccc12	-8	i	0.95	-2.1	·	·	40
CC(C#Cc1c([C@@H](C)Oc2ccccc2)nnn1Cc1ccccc1)Oc1ccccc1 (stereo partly drawn)	·	i	1.1	·	·	·	92
CSC1=NCCN1C(=O)c1cccc(Br)c1	8	i	1	-0.4	·	·	94
COc1ccc(-c2[nH]ncc2CN2CCSCC2)c(OC)c1	7	i	0.93	·	·	·	112
Cc1ccc(C(=O)CS(C)(=O)=O)cc1	-2	i	0.95	2.4	26	92	94
Continuation:
SMILES	PKD1 inh	HSV augment	HSV augment primary fold	GALR2 agonist	Insulin prom inh	Insulin prom inh cell count	RGS16-Gao HTS
Cn1ncc([N+](=O)[O-])c1C(=O)Nc1nccs1	-13	i	0.99	-0.4	32	117	98
COc1ccc(-c2nc(SC)n(C)c(=O)c2C#N)cc1OC	-12	i	0.88	0.1	·	·	54
O=C1Cn2c(nc3ccccc32)N1c1ccccc1F	1	i	0.71	-1.4	21	137	102
c1cc2ccc3ccc(-n4cnnn4)c4ccc(c1)c2c34	1	i	0.81	-1.6	28	95	99
CCOC(=O)c1cccc(Nc2ncnc3ccc(C)cc23)c1	-5	i	0.86	-0.1	27	93	102
N/C(=N\OC(=O)CCCOc1ccc(Cl)cc1Cl)c1ccncc1	-5	i	0.76	·	·	·	100
Cc1ccc(Nc2c(-c3ccc(N(C)C)cc3)nc3ncccn23)cc1	·	i	0.97	·	·	·	92
CCN(CC)S(=O)(=O)c1ccc(N2CCOCC2)c(NC(=O)c2cc(-c3ccccn3)nc3ccccc23)c1	-6	i	0.76	·	-79	201	104
COc1ccccc1OCCn1cc(C(=O)c2ccco2)c2ccccc21	5	i	0.92	1.1	-75	114	99
CN(CCOc1cccc(C(F)(F)F)c1)Cc1ccccc1	3	i	0.91	·	·	·	105
CC(C)OCCCn1c(=S)[nH]c2ncccc2c1=O	-10	·	·	0.5	10	94	95
CC(=O)c1ccc(NC(=O)CSc2nnc(-c3ccoc3C)n2Cc2ccccc2)cc1	-5	i	0.87	-1.9	-16	141	108
O=C(Nc1ccc2oc(=O)ccc2c1)c1ccccc1[N+](=O)[O-]	-8	i	0.98	·	9	116	100
O=C(Cc1coc2ccc3ccccc3c12)N1CCCC1	-7	i	0.9	-0.4	-393	57	104
O=C(COC(=O)CNC(=O)c1sc2ccccc2c1Cl)Nc1c(Cl)cc(Cl)cc1Cl	6	i	1	0.0	-13	102	101
CCOc1ccc(NC(=O)c2cccnc2SC)cc1	-7	i	0.98	·	25	88	107
CCN(CC)Cc1cc(CC(C(N)=O)C(N)=O)ccc1OC	-4	i	0.98	-0.9	-27	91	104
